ClpP mod: qHTS Assay for Activators of ClpP | Potency, µM (doses to about 57.5 µM), inactives show at the highest dose activity change, negative = active | ATP-dependent Clp protease proteolytic subunit (Bacillus subtilis (strain 168)), P80244 | 1.9% of 340,000 active | purified B. subtilis ClpP, FRET peptide cleavage, 20 min; active = well fitted falling curve with a large enough effect; inconclusive = small, poorly fitted or top-dose-only effect; inactive = no such curve, though single readings can be large or run the other way; further: potency means the concentration at half of the fitted maximal effect; the source files actives as falling curves though it sought activators and does not explain the sign; nearly all actives have a fitted effect of over 65% in size; many hits overshoot -100%
Target sequence (P80244 whole entry, looked up): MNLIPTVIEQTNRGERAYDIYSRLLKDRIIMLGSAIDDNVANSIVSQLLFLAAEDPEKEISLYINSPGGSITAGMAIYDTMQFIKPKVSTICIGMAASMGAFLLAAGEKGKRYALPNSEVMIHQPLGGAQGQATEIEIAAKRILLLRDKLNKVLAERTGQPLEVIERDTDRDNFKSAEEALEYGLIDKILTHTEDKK
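FRET quenching reversal measured ClpP activation: 10 microg/mL B. subtilis ClpP at pH 8 with the FRET-FV decapeptide, read at 430 nm after 320 nm excitation. The 20-min minus 0-min signal was scaled between DMSO/no-enzyme wells and ADEP (5.8 microM final).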
TRPML1 agonist: qHTS for Agonists of the Human Mucolipin Transient Receptor Potential 1 (TRPML1). Mucolipin-1 (Homo sapiens), Q9GZU1. TRPML1-expressing cells, Ca2+ dye fluorescence, FDSS; host cell line not named in the record; reference of the full effect not given here. activation, % (concentration not given with the values). 0.12% of 410,000 active; in the data active = activation above about 50%; inconclusive = about 30% to 50%; inactive = below about 30%; further: 0% is about no effect; the text of the record puts the active cut at 80%
Target sequence (Q9GZU1 whole entry, looked up): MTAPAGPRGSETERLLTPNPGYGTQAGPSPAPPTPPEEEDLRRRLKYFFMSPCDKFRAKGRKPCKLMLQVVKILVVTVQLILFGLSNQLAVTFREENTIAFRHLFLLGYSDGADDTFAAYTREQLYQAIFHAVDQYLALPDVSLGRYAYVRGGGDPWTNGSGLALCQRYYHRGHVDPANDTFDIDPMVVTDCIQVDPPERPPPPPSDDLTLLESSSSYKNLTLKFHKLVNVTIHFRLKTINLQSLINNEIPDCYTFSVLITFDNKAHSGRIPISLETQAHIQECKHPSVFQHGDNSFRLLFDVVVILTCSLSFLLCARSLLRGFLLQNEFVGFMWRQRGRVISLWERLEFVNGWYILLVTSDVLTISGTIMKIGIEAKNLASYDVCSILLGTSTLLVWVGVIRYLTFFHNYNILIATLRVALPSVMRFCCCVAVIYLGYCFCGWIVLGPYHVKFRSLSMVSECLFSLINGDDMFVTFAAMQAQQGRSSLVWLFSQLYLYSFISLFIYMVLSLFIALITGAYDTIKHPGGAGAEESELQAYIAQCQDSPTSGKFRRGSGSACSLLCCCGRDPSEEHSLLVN
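Agonist activity was taken from a 110 s kinetic Ca2+ dye read on the FDSS after pinning compounds onto TRPML1-DL cells. The cells were seeded at 1,500/well with Tet inducer, incubated about 16 h, then dye-loaded at room temperature.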
gsp antagonist: qHTS for Antagonists of gsp, the Etiologic Mutation Responsible for Fibrous Dysplasia/McCune-Albright Syndrome: qHTS; Potency, µM (series often up to 76.9 µM), for inactives: at the highest dose activity change, negative = inhibition, actives largely listed as inhibitors; gsp-mutant cells, cAMP HTRF, 30 min; control for the full effect not named in the record; 0.4% of 340,000 active; active = falling curve of any shape with a large fitted effect; inconclusive = falling curve, mostly with a smaller effect; inactive = flat or rising curve; cell line not stated here;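 further: intracellular cAMP measured with PDE inhibitor Ro 20-1724 present during compound exposure; potency means the concentration at half of the fitted maximal effect; on the % scale 0 is the no-effect control and ±100 the full control effect; nearly all actives have a fitted effect of over 65% in size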
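Measurement of cellular cAMP by homogeneous time-resolved fluorescence following a 30 min compound exposure at 37C. The PDE inhibitor […] was present throughout; the assay buffer was DPBS with 0.05% BSA and 0.005% Tween 20.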
TRPML1 blocker: qHTS for Inhibitors of the Human Mucolipin Transient Receptor Potential 1 (TRPML1); TRPML1-inducible cells, Ca2+ dye fluorescence, FDSS; stronger effect = lower value; inhibition of EC80 agonist-evoked calcium signal; activity change, negative = inhibition, % (concentration not given with the values); 0.02% of 390,000 active; in the data active means activity change below about -50%; inconclusive means about -30% to -50%; inactive means above about -30%;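 further: stimulus is agonist 54-4 at its EC80 concentration; on the % scale 0 is the no-effect control and ±100 the full control effect; compound concentration not given in the record; the text of the record puts the active cut at -80%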
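TRPML1-DL cells, Tet-induced overnight (~16 h, 37 °C) at 1,500 cells/well, were loaded with Ca8 no-wash dye plus quencher for 45-90 min at room temperature. Compounds were pinned during FDSS kinetic reading; agonist 54-4 at EC80 (4 uM final) then added.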
gsp agonist: qHTS for Agonist of gsp, the Etiologic Mutation Responsible for Fibrous Dysplasia/McCune-Albright Syndrome: qHTS. AID 624287, 2012. 0.13% of 340,000 active. gsp mutant cells, cAMP HTRF, 30 min; control for the full effect not named in the record. Potency, µM (series often up to 76.9 µM), without a hit: top-dose activation (cAMP increase), most hits filed as activators; active = well fitted activation curve with a large enough effect; inconclusive = small, poorly fitted or top-dose-only effect, or another doubt; inactive = no such curve, though single readings can be large or run the other way; cell line not stated here;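 further: phosphodiesterase inhibitor Ro 20-1724 added with compounds to block cAMP breakdown; potency means the concentration at half of the fitted maximal effect; nearly all actives have a fitted effect of over 60% in size; about a fifth of the inactives were tested at one dose only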
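Cells in DMEM/10% FBS with G418 were pretreated with compounds in DMSO plus […] (300 uM stock) for 30 min at 37C. cAMP was measured by HTRF (cAMP-d2 plus anti-cAMP antibody-K) after 30 min at room temperature.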
Menin-MLL FL inh: qHTS Assay for Inhibitors Targeting the Menin-MLL Interaction in MLL Related Leukemias: Competition With Fluorescein Labeled MLL-derived Peptide; Fluorescence polarization, fluorescein-MLL peptide displacement from menin; FP activity change, % at 61.4 µM; 290,000 tested, under 10 active; inconclusive = falling polarisation curve, or a change in total fluorescence; inactive = total fluorescence flat and polarisation flat or rising; no compound was filed as active; the % refers to the polarisation; negative = inhibition;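 further: % of control where 0% means no effect; inhibitors lower the polarisation; unlabelled MLL peptide was the positive control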
Numbers without * were called inactive; ? = inconclusive; . = no result given; [ ] = remark or other dose. Hits appear at their usual frequency. Share with any hit: about 2.1%.

SMILES | ClpP mod | TRPML1 agonist | gsp antagonist | TRPML1 blocker | gsp agonist | Menin-MLL FL inh
O=C(NCCc1cccc(C(F)(F)F)c1)C1CCC(=O)N(Cc2ccc(Cl)cc2)C1 (stereo unspecified) | 1.6% | 0.5 | -20% | 3 | -67%[inhibitor] | .
Cc1[nH]c2ccccc2c1C(=O)C(=O)NCC1CCCO1 (stereo unspecified) | . | -0.5 | 0% | 7 | 1%[15.4 µM] | -1.7
CC(=Nc1ccccc1)C1=C(O)C(Cc2ccc(F)cc2)NC1=O (stereo unspecified) | -0.3% | -0.4 | . | 1 | ? | .
COCCNC(=S)NCc1ccc2[nH]c3c(c2c1)CCCC3 | -4.7% | -0.5 | -5% | 5 | -32%[inhibitor] | -0.1
CCOC(=O)c1[nH]c2c(OCC)nc(OCC)nc2c1Br | -11% | 0.0 | 3% | 9 | -23% | .
O=C(CSCc1ccc(Br)cc1)Nc1ccc(S(=O)(=O)N2CCCCCC2)cc1 | -2.4% | 3.6 | -10% | -6 | -3% | -4.6
CCn1cc(C(=O)OCC(=O)Nc2cccc(C(C)=O)c2)c(=O)c2ccc(C)nc21 | -3.2% | -0.8 | . | 48 | . | .
Cc1[nH]c2ccccc2c1SCCNC(=O)c1ccc(S(=O)(=O)N2CCCC2)cc1 | -1.8% | 1.2 | 15% | -4 | -37%[inhibitor] | 1.3
CNC(=O)/C(C#N)=C/c1c(N(Cc2ccccc2)Cc2ccccc2)nc2ccccn2c1=O | 1.5% | -0.6 | -3% | 2 | -1% | -0.1
CC(C)Nc1oc(Cc2cccc3ccccc23)nc1C#N | ? | 2.1 | -6% | 15 | -38%[inhibitor] | 2.5
O=C(Oc1cc2oc(=O)cc(-c3ccccc3)c2cc1Cl)C1CCCCC1 | -17% | 1.9 | -4% | 0 | ? | ?
CCc1ccc(N(CC(=O)NC2CCCC2)C(=O)CCC(=O)Nc2cc(C)on2)cc1 | . | 1.0 | 11% | 14 | 11%[15.4 µM] | -1.5
Cc1ccc(CNC(=O)CSc2nc3ccccc3[nH]2)cc1 | 0.3% | . | 3% | . | -31% | 1.4
COc1cc(NC(=O)Cc2ccc(F)cc2)cc(OC)c1OC | . | 0.2 | 1% | -2 | -2%[15.4 µM] | 1.0
CC(C)CNS(=O)(=O)c1ccc(CCC(=O)NCCC2=CCCCC2)cc1 | 1.1% | -0.1 | -20% | -4 | -29% | -0.7
CNS(=O)(=O)c1cn(CC(=O)N2CCN(c3cc(C)ccc3C)CC2)cc1S(=O)(=O)NC | 0.8% | 0.3 | . | -15 | . | .
O=C1NC(=S)NC(=O)C1=Cc1ccccc1C(=O)O | 0.9% | 0.1 | -3% | 3 | 0%[15.4 µM] | .
O=C(Cc1cccc2ccccc12)Nc1cc(Cl)ccc1C(=O)O | . | 0.6 | -22% | 43 | 1% | -4.0
Cc1c(C(=O)OCCOC(C)C)[nH]c2c1C(=O)CC(C)(C)C2 | -0.9% | -0.3 | -4% | 6 | -24% | -0.4
CC1(OC(=O)C2CCCC2)C(=O)C=C2C=C(c3ccsc3)N(Cc3ccc4c(c3)OCO4)C=C2C1=O (stereo unspecified) | -1.6% | -0.2 | -8% | 4 | . | 1.6[11.7 µM]
CCOc1ccccc1NC(=O)Cc1coc2c(C)c(C)ccc12 | -7.1% | 1.1 | . | -29 | . | .
N#Cc1ccc(NC(=O)C2Cc3ccccc3CN2S(=O)(=O)c2ccc(F)cc2)cc1 (stereo unspecified) | -1.8% | 4.4 | . | 43 | . | .
O=c1[nH]c(CSc2cccc[n+]2[O-])nc2ccccc12 | -1.2% | -0.9 | 4% | -6 | 22% | -0.6
Cn1nnnc1SCC(=O)c1ccco1 | -1.2% | -0.3 | 8% | 7 | -33%[inhibitor] | 4.5
COc1cccc(/C=C2\SC(=S)N(CCC(=O)NC3C=CS(=O)(=O)C3)C2=O)c1 (stereo unspecified) | 0.8% | 0.2 | -4% | 2 | ? | 3.2
CCOc1cc(C(=O)Nc2ccccc2N2CCN(S(C)(=O)=O)CC2)cc(OCC)c1OCC | -1.7% | 2.6 | -1% | 19 | 20% | 2.8
CC(=O)c1ccc(S(=O)(=O)N2CCCC(N(C)CCc3ccccc3)C2)cc1 (stereo unspecified) | . | -0.4 | -6% | -9 | -26% | -0.5
CC(C)[C@H](NC(=O)c1c(F)cccc1F)C(=O)OCC(=O)NC(=O)NC1CCCC1 | 9.2% | 1.0 | 0% | -8 | -34%[inhibitor] | 1.6
Cc1cc2cc(CCNS(=O)(=O)c3ccc(Br)cc3)c(=O)[nH]c2cc1C | -18% | -1.2 | . | -2 | . | .
CCOc1ccccc1C(=O)OCC(=O)Nc1ccc(N2CCCCC2)cc1 | -6.0% | 3.2 | -1% | 23 | -8% | 5.4
Cc1cc(OCC(=O)NC2CCN(Cc3ccccc3)CC2)c2c(C)c(C)c(=O)oc2c1 | ? | -1.2 | 8% | 18 | ? | .
CN(CCOc1ccccc1)C(=O)C1CCC(=O)N(CCc2ccc(Cl)cc2)C1 (stereo unspecified) | 1.4% | 3.0 | -6% | 4 | ? | .
CCc1ccc(NC(=O)CSc2nc(C)cc(COC)c2C#N)cc1 | -15% | 1.4 | . | -9 | . | .
COc1ccc(N2CC(NC(=O)/C=C\c3ccccc3)CC2=O)cc1OC (stereo unspecified) | -0.5% | -0.7 | . | 13 | . | .
COc1ccc(NC(=O)C2CCCN2c2ccc(OC)c(OC)c2)cc1OC (stereo unspecified) | 0.5% | 7.2 | -4% | 7 | -27% | -1.1
O=C(NCN1C(=O)C2C3C=CC(C3)C2C1=O)OC1CCCCC1 (stereo unspecified) | 0.2% | -0.1 | 0% | 17 | 1% | -3.8
CCOc1ccc(-n2c(O)c(/C=N/Nc3nnc(C)c(=O)[nH]3)c3ccccc3c2=O)cc1 | -11% | 0.8 | ? | 8 | 14%[15.4 µM] | 21
Cc1ccc(S(=O)(=O)N(CC(=O)N=Nc2c(O)[nH]c3ccccc23)c2cccc(C)c2)cc1 | 2.1% | 1.4 | -16% | 6 | -31%[inhibitor] | -5.4
COc1ccccc1CNC(=O)CNC(=O)Cn1cnc2ccccc2c1=O | -0.3% | -0.1 | -1% | -7 | -21% | 2.4
OC(C#CCN1CCCCC1)c1ccccc1 (stereo unspecified) | 2.0% | -0.5 | -1% | 6 | -14% | -1.3
O=C(NNC(=S)NC(=O)c1ccccc1[N+](=O)[O-])c1ccc(Cl)cc1Cl | . | -0.5 | -15% | -17 | -13% | -1.2
CCOC(=O)c1c(C)[nH]c(CCC(=O)NCc2ccc(OC)c(OC)c2)c1C | -0.5% | 2.4 | . | 9 | . | .
Cc1c(N(C(=O)c2cc(=O)[nH]c3ccccc23)C(C)C)c(=O)n(-c2ccccc2)n1C | -0.1% | 0.6 | 0% | 7 | 0% | 1.9
COc1ccc(NC(=O)CCC(=O)N2CCOCC2)c([N+](=O)[O-])c1 | -0.9% | 0.2 | 11% | -8 | -10% | .
CCCC(c1nnnn1CCOC)N1CCN(c2nc3ccccc3s2)CC1 (stereo unspecified) | . | -0.1 | -13% | -15 | 17%[15.4 µM] | -14
COCCn1nnnc1C(c1cccc(OC)c1OC)N1CCN(C(=O)c2ccco2)CC1 (stereo unspecified) | . | 0.6 | 1% | -15 | 18% | .
CCN1C(=O)CC(n2c(C)nc3ccccc32)C1=O (stereo unspecified) | -5.8% | 3.1 | 7% | 3 | 12% | 0.1
CCCCn1c(NC(=O)c2ccccc2)c(C#N)c2nc3ccccc3nc21 | -7.4% | 8.0 | ? | 2 | 2% | ?

4 compounds picked at random from the list so far, as already listed:
SMILES | ClpP mod | TRPML1 agonist | gsp antagonist | TRPML1 blocker | gsp agonist | Menin-MLL FL inh
COc1ccc(NC(=O)CCC(=O)N2CCOCC2)c([N+](=O)[O-])c1 | -0.9% | 0.2 | 11% | -8 | -10% | .
COCCn1nnnc1C(c1cccc(OC)c1OC)N1CCN(C(=O)c2ccco2)CC1 (stereo unspecified) | . | 0.6 | 1% | -15 | 18% | .
Cc1ccc(S(=O)(=O)N(CC(=O)N=Nc2c(O)[nH]c3ccccc23)c2cccc(C)c2)cc1 | 2.1% | 1.4 | -16% | 6 | -31%[inhibitor] | -5.4
O=C(NNC(=S)NC(=O)c1ccccc1[N+](=O)[O-])c1ccc(Cl)cc1Cl | . | -0.5 | -15% | -17 | -13% | -1.2

Next compounds.
SMILES | ClpP mod | TRPML1 agonist | gsp antagonist | TRPML1 blocker | gsp agonist | Menin-MLL FL inh
CCCN(CC(=O)Nc1ccccc1OC)C(=O)C1=COCCO1 | 1.4% | 0.9 | ? | -18 | 38% | .
Oc1ccccc1C1=NC(c2ccccc2)NC(c2ccccc2)C1 (stereo unspecified) | -13% | 0.5 | . | -3 | 12% | .
CC(C)(C)OC(=O)C[C@H]1C/C=C\C[C@@H](CC(=O)NCCO)C(=O)N2CCC[C@H]2COC1=O | -0.2% | -0.8 | 4% | 26 | . | .
CC(C)C[C@H]1CN=C(Nc2ccccc2)N1CCc1cccc(F)c1 | -1.3% | 80* | 3% | 9 | 5% | .
CCCCN(CC)C(=O)Cn1c(=O)n(-c2ccc(OCC)cc2)c(=O)c2c3c(sc21)CCC3 | -2.0% | 4.9 | . | -5 | . | .
COc1cccc(NC(=O)CN2CCN(c3ccc(F)cc3)CC2)c1 | -1.3% | -0.9 | 2% | 1 | -10% | 2.9
CCn1c(-c2c(Cl)c(C)nn2C)n[nH]c1=S | -2.5% | -0.6 | 5% | -14 | 16% | 0.0
Cc1ccc(NC(=O)CN(Cc2ccco2)Cc2ccccc2O)cc1C | . | -0.2 | ? | 2 | ? | -0.8
CC(C)c1cc(-c2nc(-c3cccc(Cl)c3)no2)n[nH]1 | -0.3% | 2.1 | . | 8 | . | .
N#Cc1cccc(NC(=O)Cn2cnc(S(=O)(=O)N3CCCC3)c2)c1 | -0.9% | -0.3 | 1% | 0 | -17% | 0.6
CCc1cccc(NC(=O)CN2C(=O)COc3ccc(S(=O)(=O)N4CCC(C)CC4)cc32)c1 | 1.2% | 2.2 | . | -29 | . | .
CCOc1ccccc1C=C1CCc2ccccc2C1=O | -0.1% | -0.3 | . | -2 | -32%[inhibitor] | .
CS(=O)(=O)Nc1ccc(C2=NN(S(C)(=O)=O)C(c3cccs3)C2)cc1 (stereo unspecified) | 3.8% | 0.5 | -3% | 13 | ? | 15

Source: PubChem BioAssay
